# Sfp inh: inhibitors of Bacillus subtilis Sfp phosphopantetheinyl transferase; Q9F4F7; Biochemical Sfp PPTase activity, qHTS; Potency, µM, for inactives: max response, negative = inhibition, actives largely listed as inhibitors; 3.5% of 310,000 active; AID 1490; active means well fitted inhibition curve with a large enough effect; inconclusive means small, poorly fitted or top-dose-only effect, or another doubt; inactive means no such curve, though single readings can be large or run the other way;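 further: the enzyme is Sfp with the accession as filed and its product quenches rhodamine fluorescence; potency means the concentration at half of the fitted maximal effect; 0% = enzyme reaction without inhibitor and -100% = no enzyme wells; top concentration of the series not given in the record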
#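 After 15 min at room temperature with compound, 15 nM Sfp received 5 uM rhodamine-CoA plus 12.5 uM BHQ-2-ybbR (50 mM Hepes pH 7.6, 10 mM MgCl2). Rate came from the fluorescence difference over 30 min, ex 525/em 598 nm.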
# TRPML1 ag: activates the human TRPML1 channel. AID 624414. Q9GZU1. 0.12% of 410,000 active. activation, % (test concentration not listed). TRPML1-expressing cells, Ca2+ dye fluorescence, FDSS; host cell line not named in the record; reference of the full effect not given here; in the data active = activation above about 50%; inconclusive = about 30% to 50%; inactive = below about 30%; further: 0% is about no effect; the text of the record puts the active cut at 80%
#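 Tet-induced TRPML1-DL cells, 1,500 per well, cultured overnight, were loaded with a no-wash Ca2+ dye for 45–90 min. Calcium fluorescence was recorded on the FDSS for 110 s after compound addition, before the EC80 agonist (4 uM 54-4) was added.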
# ClpP mod: qHTS Assay for Activators of ClpP | Potency, µM (highest dose often 57.5 µM), for inactives: top-dose activity change, negative = active | AID 651965, 2013 | 1.9% of 340,000 active | ATP-dependent Clp protease proteolytic subunit (Bacillus subtilis (strain 168)), P80244 | purified B. subtilis ClpP, FRET peptide cleavage, 20 min; active = well fitted falling curve with a large enough effect; inconclusive = small, poorly fitted or top-dose-only effect; inactive = no such curve, though single readings can be large or run the other way; further: potency means the concentration at half of the fitted maximal effect; the source files actives as falling curves though it sought activators and does not explain the sign; nearly all actives have a fitted effect of over 65% in size; many hits overshoot -100%
# Target sequence (P80244 whole entry, looked up): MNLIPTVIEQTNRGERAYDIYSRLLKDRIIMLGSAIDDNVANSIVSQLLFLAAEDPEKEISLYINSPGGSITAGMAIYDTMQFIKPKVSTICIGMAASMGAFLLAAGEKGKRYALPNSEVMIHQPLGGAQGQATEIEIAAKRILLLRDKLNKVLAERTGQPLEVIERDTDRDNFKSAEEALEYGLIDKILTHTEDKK
#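 Buffer: 100 mM Tris/HCl pH8, 100 mM KCl, 0.05% low protease BSA, 2.5% glycerol, 0.01% Tween-20. ClpP 10 microg/mL final; 20 min RT; delta FRET normalized to ADEP and DMSO controls.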
# TRPV1 PAM: enhances activation of the human vanilloid receptor TRPV1. AID 540277. 0.02% of 320,000 active. TRPV1-expressing cells, Fluo-8 calcium influx, capsaicin EC20 potentiation; host cell line not named in the record; control for the full effect not named in the record. Q8NER1. potentiation, % at 8.33 µM; active means potentiation above 80%; inconclusive means 30% to 80%; inactive means below 30%; further: 0% is about no effect
# Target sequence (Q8NER1 whole entry, looked up): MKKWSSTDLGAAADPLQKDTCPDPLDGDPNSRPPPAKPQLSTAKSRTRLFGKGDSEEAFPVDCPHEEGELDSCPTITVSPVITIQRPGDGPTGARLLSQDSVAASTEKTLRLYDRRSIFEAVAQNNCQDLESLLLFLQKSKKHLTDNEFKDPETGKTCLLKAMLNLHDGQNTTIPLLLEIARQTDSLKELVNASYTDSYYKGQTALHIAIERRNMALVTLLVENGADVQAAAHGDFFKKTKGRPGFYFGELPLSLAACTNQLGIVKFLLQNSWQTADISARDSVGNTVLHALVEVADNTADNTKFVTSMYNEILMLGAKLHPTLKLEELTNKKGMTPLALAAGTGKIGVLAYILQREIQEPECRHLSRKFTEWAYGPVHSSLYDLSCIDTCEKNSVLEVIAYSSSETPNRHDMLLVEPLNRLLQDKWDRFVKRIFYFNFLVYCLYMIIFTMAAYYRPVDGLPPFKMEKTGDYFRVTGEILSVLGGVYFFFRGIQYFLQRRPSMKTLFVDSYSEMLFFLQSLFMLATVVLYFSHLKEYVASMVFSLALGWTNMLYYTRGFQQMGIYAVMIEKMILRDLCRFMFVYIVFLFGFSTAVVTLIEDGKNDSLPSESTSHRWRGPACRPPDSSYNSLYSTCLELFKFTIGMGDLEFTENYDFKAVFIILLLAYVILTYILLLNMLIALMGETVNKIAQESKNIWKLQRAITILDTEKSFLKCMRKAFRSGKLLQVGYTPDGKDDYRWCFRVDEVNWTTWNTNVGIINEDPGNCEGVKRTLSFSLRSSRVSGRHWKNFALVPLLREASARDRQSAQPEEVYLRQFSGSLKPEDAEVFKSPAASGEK
#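 TRPV1-expressing cells were cultured overnight at 35.5C and loaded with Fluo-8 calcium dye for 40 to 90 min at room temperature. After a 10 s baseline, compound was added and calcium influx was read kinetically for 3 min (ex 480/em 520 nm).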
# Menin MLL FP FL: inhibitors of human menin-MLL interaction, wild-type MLL peptide | Fluorescence polarization, fluorescein-MLL peptide displacement from menin | FP activity change, % at 61.4 µM | 290,000 tested, under 10 active; inconclusive = falling polarisation curve, or a change in total fluorescence; inactive = total fluorescence flat and polarisation flat or rising; no compound was filed as active; the % refers to the polarisation; negative = inhibition;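 further: % of control where 0% means no effect; inhibitors lower the polarisation; unlabelled MLL peptide was the positive control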
# TRPML1 blocker: blocks the human TRPML1 channel | TRPML1-inducible cells, Ca2+ dye fluorescence, FDSS; stronger effect = lower value; inhibition of EC80 agonist-evoked calcium signal | activity change, negative = inhibition, % (no concentration beside the values) | 0.02% of 390,000 active; in the data active means activity change below about -50%; inconclusive means about -30% to -50%; inactive means above about -30%;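 further: stimulus is agonist 54-4 at its EC80 concentration; on the % scale 0 is the no-effect control and ±100 the full control effect; compound concentration not given in the record; the text of the record puts the active cut at -80%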
#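 Tet-induced TRPML1-DL cells loaded with Ca8 no-wash calcium dye were read kinetically on FDSS. Compound addition was followed by EC80 agonist 54-4 (4 uM final); inhibition was read over 110 s.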
# PINK1 expr mod: changes PINK1 expression | PINK1 immunofluorescence, high-content cytometry, 24 h | AID 624263 | Potency, µM (series often up to 76.6 µM), without a hit: at the highest dose activation (PINK1 increase), actives largely listed as activators | 0.2% of 410,000 active; active = well fitted activation curve with a large enough effect; inconclusive = small, poorly fitted or top-dose-only effect; inactive = flat fitted curve, though single readings scatter; cell line not stated here;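 further: potency means the concentration at half of the fitted maximal effect; % of control where 0% means no effect; nearly all actives have a fitted effect of over 65% in size; a mitochondrial uncoupler was the plate control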
#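 Measures PINK1 amount and localization on or inside mitochondria by immunofluorescence. Stable cells get compounds at 5 concentrations for 24 hours before fixation and staining; CCCP controls included.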
# An asterisk follows results filed as active; u = inconclusive; x = not tested or not shown; [ ] = another dose, or the depositor's remark.
# Under each structure – TRPV1 PAM	PINK1 expr mod	Menin MLL FP FL	TRPML1 blocker	ClpP mod	Sfp inh	TRPML1 ag
> COc1ccc(CNC(=O)CSCc2nc(-c3ccccc3F)oc2C)cc1
 : x	1.6%	x	-9.1	-5.6%	x	0.4
> N#C/C(=C\Nc1ccccc1SC(F)(F)F)c1nc(-c2ccc(Cl)cc2)cs1
 : -1.7	10.2%	6.5	-2.8	0.3%	13.2%	0.1
> Cc1ccc2c(c1)c1n[nH]c(=S)nc1n2CCc1ccccc1
 : -5.2	u	-3.4	1.5	0.9%	-8.1%	3.1
> CC1CC(C)CN(C(=O)c2cccc(S(=O)(=O)Nc3cc(C(F)(F)F)ccc3Cl)c2)C1 (stereo not drawn)
 : 7.0	0.8%	1.5	5.7	x	14.4%	0.3
> O=C(COC(=O)c1cc(F)c(F)cc1Cl)NC1CCCCCC1
 : x	2.0%	x	4.1	0.1%	x	0.3
> O=C(NC(=S)NCC1CCCO1)c1ccccc1 (stereo not drawn)
 : -2.3	-1.6%	-3.1	31.9	1.3%	-26.2%	1.8
> Cc1cc2ccccc2c(=O)n1CC(=O)N1CCN(c2cccc(Cl)c2)CC1
 : -9.3	3.3%	-0.6	2.8	-27.3%	-3.2%	0.8
> O=C(NC(Cc1c[nH]c2ccccc12)C(=O)NCCCN1CCOCC1)c1cccs1 (stereo not drawn)
 : -1.7	1.3%	0.9	4.3	x	16.9%	0.3
> CCN1C(=O)C(CC(=O)Nc2ccc(OC)cc2)N(CCc2ccccc2)C1=S (stereo not drawn)
 : 0.7	u	-0.3	38.8	0.9%	-5.1%	3.0
> NC(=O)c1ncc(C(F)(F)F)cc1Cl
 : 12.9	2.1%	-0.8	-1.3	x	9.2%	0.1
> O=P(O)(COc1ccccc1)COc1ccccc1
 : 4.3	-2.2%	1.2	-3.6	1.4%	13.2%	0.6
> COCCCNC(=O)/C(C#N)=C/c1c(N2CCN(c3cccc(Cl)c3)CC2)nc2c(C)cccn2c1=O
 : 1.2	1.6%	0.1	-7.4	4.1%	-17.0%	0.7
> COc1ccc(-n2c(C)cc(C(=O)CN3C(=O)NC4(CCCc5sccc54)C3=O)c2C)cc1 (stereo not drawn)
 : 9.2	0.1%	2.8	10.6	-4.8%	-16.2%	1.3
> COc1ccccc1N(CC(O)COc1ccccc1C)S(=O)(=O)c1ccccc1 (stereo not drawn)
 : -1.2	1.9%	5.7	19.3	1.1%	8.6%	1.2
> Cc1ccc(C(C[N+](=O)[O-])c2c(-c3ccccc3O)[nH][nH]c2=O)cc1 (stereo not drawn)
 : -3.7	-1.7%	3.3	2.6	x	-10.5%	-0.4
> CCN(CC)C(=O)CCCOc1ccc(Cl)cc1Cl
 : 0.9	0.2%	-2.0	-7.5	-0.8%	4.2%	-0.1
> Cc1cc(C(=O)Nc2sc(C)c(C)c2C#N)no1
 : 22.5	22.4%[38.3 µM]	3.4	-8.3	1.0%	-4.8%	-0.2
> CCN(CC)CCn1c2c(c(SCC(=O)Nc3cccc(C(C)=O)c3)nc1=O)CCCC2
 : -8.6	-1.5%	x	-19.0	-3.3%	x	-0.3
> COc1cccc(C(=O)N(CN2CCCC2=O)c2cccc(Cl)c2)c1OC
 : 5.3	x	-0.1	-13.8	-0.4%	-4.3%	-0.3
> O=C(CC1C(=O)NCCN1Cc1ccc(-c2ccccc2)cc1)NCC1CC1 (stereo not drawn)
 : 0.5	-1.2%	-0.5	-21.1	x	-11.4%	0.7
> Cc1ccc(C2(C)NC(=O)N(CC(=O)N(C)CC(=O)Nc3cccc4ccccc34)C2=O)cc1 (stereo not drawn)
 : 7.6	-4.6%	x	16.9	x	x	3.2
> CC(C)Cn1c(=O)c2sccc2n2c(CCCC(=O)NCc3ccccc3Cl)nnc12
 : x	1.3%	x	-2.2	-13.9%	x	-0.5
> CCc1cccc(OCCN2CCCC2)c1
 : 29.1	-0.1%	1.3	13.6	-16.1%	-26.6%	0.8
> C/C(=C\c1ccccc1)CN1CCN(c2cccc(Cl)c2)CC1
 : 4.3	25.8%[38.3 µM]	4.9	-8.3	-0.1%	8.7%	1.6
> O=C(O)c1ccc(CSc2nnc(COc3ccc(Cl)cc3Cl)o2)cc1
 : 4.6	0.6%	0.7	-16.2	0.9%	-3.9%	-0.7
> C=CCN(C(=O)c1csnn1)C(C(=O)NC1CCCCC1)c1ccc(Cl)cc1 (stereo not drawn)
 : -14.9	4.4%	-0.2	6.5	x	-2.7%	-0.4
> O=c1oc2ccccc2cc1-c1csc(Nc2ccc(O)cc2)n1
 : -11.4	-0.2%	4.0	4.1	-1.0%	-23.3%	0.6
> CCc1ccc(S(=O)(=O)Nc2ccc(O)c3c(=O)cc(-c4ccccc4Cl)oc23)cc1
 : -1.3	0.1%	-1.3	16.5	-7.2%	11.2%	1.0
> CC(C)NC(=O)Cn1cnc2c(cnn2-c2ccc(F)cc2)c1=O
 : -3.2	-0.5%	-1.0	0.6	x	6.9%	-0.1
> Nc1c(S(=O)(=O)c2cc(Cl)ccc2Cl)c2nc3ccccc3nc2n1CCN1CCOCC1
 : -0.6	5.9%[38.3 µM]	6.1	-1.3	u	-13.0%	0.9
> CCn1c(CNC(=O)C23CC4CC(CC(C4)C2)C3)nnc1SCC(=O)Nc1ccc(F)cc1
 : x	0.6%	x	15.1	2.1%	x	1.7
> CCOC(=O)c1sc(=S)n(-c2ccc(Cl)cc2)c1C
 : -4.2	0.6%	2.0	25.6	1.3%	10.0%	-0.4
> O=C(COC(=O)c1cc([N+](=O)[O-])ccc1N1CCOCC1)NCc1ccccc1
 : x	1.4%	x	-6.1	-3.4%	x	-0.5
> C#CCNC(=O)C[C@@H]1C[C@@]2(C(=O)OCC)CCCC=C2N(CCCCCCCC)C1=O
 : x	3.1%	x	x	1.1%	x	-0.5
> COc1ccc(S(=O)(=O)NCc2ccccn2)cc1NC(=O)c1ccc(C)cc1
 : -2.1	7.4%	x	1.2	x	x	-0.5
> CN(C)C(CNC(=O)c1cccc(S(=O)(=O)N2CC3(C)CC2CC(C)(C)C3)c1)c1ccco1 (stereo not drawn)
 : -0.7	-3.1%	0.8	-4.3	-0.4%	-5.8%	0.4
> Cc1nc(-c2cc(-c3nc(-c4cc(C(F)(F)F)cc(C(F)(F)F)c4)no3)no2)cs1
 : -5.1	9.4%	3.0	16.4	0.2%	-0.5%	4.0
> C[C@H]1CN=C(N(C)C)N1CCc1cccc(F)c1
 : u	-0.1%	x	-8.2	-1.0%	x	0.2
> Nn1c(SCC(=O)N2CCCc3ccccc32)nnc1-c1ccccc1
 : 7.4	-1.3%	3.9	-4.4	0.7%	18.0%	1.5
> C=CCn1c(COc2ccc(OC)cc2)nnc1SC(C)C(=O)NC1CC1 (stereo not drawn)
 : 1.3	0.2%	x	-5.9	-0.6%	x	-0.7
> N/C(=N\OC(=O)c1ccc2c(c1)OCO2)c1cccc([N+](=O)[O-])c1
 : -10.9	2.1%	0.7	18.7	x	-5.8%	-0.2
> O=C1C(=O)N(CCCN2CCOCC2)C(c2ccc(F)cc2)/C1=C(/O)c1ccccc1 (stereo not drawn)
 : 22.3	1.0%	1.5	-0.6	0.8%	3.9%	1.2
> O=C(NC(=O)c1ccc(Cl)cc1)Nc1ccc(-c2cnco2)cc1
 : -3.2	x	1.4	x	x	5.2%	x
> CCOc1ccccc1NC(=S)NCc1ccccc1
 : 5.6	1.1%	-1.8	0.4	x	3.3%	-0.8
> O=C(NCc1cccnc1)NC(=O)c1ccc(Cl)cc1
 : -18.1	-0.2%	4.0	-1.0	-0.3%	7.4%	-0.3
> NNC(=O)c1cncn1-c1ccc(F)cc1
 : -8.8	1.3%	5.2	5.5	x	9.2%	0.2
> CC1=C(c2ccccc2)[N+](=O)C2(CCCCC2)N1[O-]
 : 0.7	1.0%	-3.9	-3.6	x	7.7%	-0.6
> O=C(COC(=O)c1cccc(S(=O)(=O)N2CCOCC2)c1)Nc1ncc(C(F)(F)F)cc1Cl
 : -2.5	-1.1%	14.7	9.5	-1.0%	4.4%	0.7
> O=C(NCCCN1CCCCCC1)c1ccc2c(c1)NC(=O)C(N1CCOCC1)S2 (stereo not drawn)
 : -3.2	1.0%	0.8	-20.5	0.7%	7.6%	-0.6
> COc1ccc(CCNC(=O)COC(=O)c2cc(=O)[nH]c3ccccc23)cc1
 : x	1.5%	x	2.7	2.7%	x	0.7
> O=C(CCc1ccc(S(=O)(=O)N2CCOCC2)cc1)Nc1c(F)cccc1F
 : x	2.9%	x	6.1	0.6%	x	-0.5
> C=CCOc1ccccc1CN1CCC(Oc2ccc(C(=O)N3CCCC3)cc2)CC1
 : 6.1	-2.1%	0.9	14.7	-1.3%	5.3%	0.1
> C=CCn1c(SCC(=O)NCCO)nc2sc(C)c(C)c2c1=O
 : -3.5	1.1%	2.3	12.4	x	9.2%	0.3
> O=C(c1ccc2c(c1)OCO2)n1nnc2ccccc21
 : -3.2	x	-2.7	x	x	9.6%	x
> COc1cccc(-n2nnc3c(=O)n(CC(=O)Nc4cc(C)on4)cnc32)c1
 : -10.0	4.6%	1.3	7.2	3.1%	-2.4%	-0.2
> O=C(Nc1ccc2c(c1)OCCO2)C(C1CC1)N1CCN(c2ccc(F)cc2)CC1 (stereo not drawn)
 : x	1.1%	x	x	-4.9%	x	-0.7
> Cc1oc(-c2ccccc2)nc1C(=O)OCC(=O)NCc1ccccc1
 : 0.8	0.5%	x	3.7	-2.0%	x	-0.3
> O=C(NCCCCCNC(=O)c1cccnc1)c1cccnc1
 : 4.8	-0.3%	-2.9	11.5	-0.7%	-1.4%	-0.5
> COc1cccc(-n2nnc3c(=O)n(CC(=O)N4CCCc5ccccc54)cnc32)c1
 : 10.7	4.6%[38.3 µM]	1.8	-0.2	-6.6%	-3.1%	1.5

# Full records as entered above. Screens in order: TRPV1 PAM, PINK1 expr mod, Menin MLL FP FL, TRPML1 blocker, ClpP mod, Sfp inh, TRPML1 ag
# C=CCOc1ccccc1CN1CCC(Oc2ccc(C(=O)N3CCCC3)cc2)CC1 is listed as 6.1, -2.1%, 0.9, 14.7, -1.3%, 5.3%, 0.1
# O=C(NC(=O)c1ccc(Cl)cc1)Nc1ccc(-c2cnco2)cc1 is listed as -3.2, x, 1.4, x, x, 5.2%, x
